Assay outcomes as filed in PubChem BioAssay.
RecA intein inh: blocks M. tuberculosis RecA intein splicing. 290,000 tested, 0.75% active. AID 2221. inhibition, %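 (about 9 µM by stock and volumes)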. cell-free RecA intein splicing, fluorescence. P9WHJ3; in the data active means inhibition above about 30%; inconclusive means no clear call, values can overlap the other calls;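 further: 0% = vehicle wells and 100% = reference inhibitor control wells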
Target sequence (P9WHJ3 whole entry, looked up): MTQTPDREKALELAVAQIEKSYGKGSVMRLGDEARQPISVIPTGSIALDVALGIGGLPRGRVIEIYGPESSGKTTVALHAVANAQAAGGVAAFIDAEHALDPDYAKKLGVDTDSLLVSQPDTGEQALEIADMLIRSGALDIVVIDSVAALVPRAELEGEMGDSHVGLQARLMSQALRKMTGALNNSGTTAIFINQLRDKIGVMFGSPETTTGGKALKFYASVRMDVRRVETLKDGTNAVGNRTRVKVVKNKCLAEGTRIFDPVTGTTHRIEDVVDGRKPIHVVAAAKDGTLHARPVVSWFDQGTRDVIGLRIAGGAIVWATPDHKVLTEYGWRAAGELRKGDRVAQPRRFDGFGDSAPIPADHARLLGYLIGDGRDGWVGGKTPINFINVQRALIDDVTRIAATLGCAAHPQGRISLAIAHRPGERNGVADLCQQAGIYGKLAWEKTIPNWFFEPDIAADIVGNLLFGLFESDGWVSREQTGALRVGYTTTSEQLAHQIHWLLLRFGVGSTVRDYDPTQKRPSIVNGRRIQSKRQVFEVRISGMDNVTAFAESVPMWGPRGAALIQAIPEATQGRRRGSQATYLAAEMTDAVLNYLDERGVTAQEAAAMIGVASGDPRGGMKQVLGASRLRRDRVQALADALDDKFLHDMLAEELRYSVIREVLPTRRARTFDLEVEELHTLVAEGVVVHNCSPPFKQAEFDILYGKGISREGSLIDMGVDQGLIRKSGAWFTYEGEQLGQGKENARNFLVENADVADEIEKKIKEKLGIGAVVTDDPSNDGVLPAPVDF
YopH PTP inh: YopH (Yersinia) phosphatase inhibition | fluorescence Ex485/Em525 | 140,000 tested, 0.16% active | inhibition, %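 (about 10 µM by stock and volumes)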;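 active means inhibition of 50% or more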;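 further: controls were vehicle for no effect and minimum signal wells for full effect; inactives centre near -20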
Mtb growth: M. tuberculosis H37Rv growth inhibitors, H37Rv strain (AID 1626); inhibition, % at 10 µM; hits with a dose series show IC50 in µM; M. tuberculosis H37Rv growth inhibition; higher % means a stronger effect; 220,000 tested, 0.95% active;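 active means confirmed in a dose series; inconclusive means inhibition above 80% but not taken into the dose series; inactive means below 80% or under 30% at every dose of the series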;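 further: bacteria incubated seven days before Alamar blue readout; 0% = bacteria only wells and 100% = bacteria with antibiotic wells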
Arbovirus inh: antivirals against arbovirus infection; arbovirus infection cell-based antiviral screen; inhibition, % at 10 µM; 200,000 tested, 0.37% active; AID 1251;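 active means inhibition from about 30%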;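 further: bluetongue infection of BSR cells; cell survival read as ATP light after 72 h; 0% = infected wells without compound and 100% = uninfected wells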
Mtb bLac sens: beta-lactam sensitization of Mtb H37Rv; M. tuberculosis H37Rv growth with meropenem, percent inhibition; hits of this screen are not shown here; 330,000 tested, 0.27% active; AID 434955; inhibition, % at 25 µM;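 active means about 74% or more and at least 40 points above the plate without the antibiotic, then above 30% in a dose series; inconclusive means first-round hits that could not be retested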;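 further: growth measured after seven days incubation then overnight dye step; 0% = bacteria only wells and 100% = bacteria with antibiotic; twin plates without the antibiotic show which effects depend on it; some results filed as inactive read as strong as hits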
Arbovirus inh repeat: further read-out of Arbovirus inh, marked with its call; inhibition, %; measured here: 10K subset replicate screen; many hits read low in the repeat;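 first of two repeat runs on a subset; 0% = infected and 100% = uninfected wells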
* marks the source's active call; other numbers are inactive results; i = inactive; u = inconclusive; x = no result given. An excerpt. The share of hits here may be higher or lower than overall.

SMILES	RecA intein inh	YopH PTP inh	Mtb growth	Arbovirus inh	Mtb bLac sens	others
CC1(C)CC(=O)C(Sc2ccc(Br)cc2)=C(O)C1	1.1	x	-7%	22	-9
O=C(CCl)Nc1nccs1	5.1	x	49%	x	95
CCOc1ccccc1Cn1c(=O)oc2ccc(C)cc21	x	4	3%	-7	7
CN(C)c1ccc(C(CNC(=O)c2ccccc2)c2c[nH]c3ccccc23)cc1 (centres undefined)	-6.7	-18	12%	-5	37
Cc1nc(CS(=O)(=O)c2ccccn2)sc1C(=O)NNC(=O)c1ccccc1	-0.2	x	-24%	x	-6
CCC(C)(C)NC(=O)C(C)OC(=O)c1nsc(Cl)c1Cl (centres undefined)	0.1	-17	-10%	4	-1
COc1cccc(NC(=O)Nc2cc(C(=O)O)ccc2C)c1	0.4	x	-5%	7	-4
Cc1ccc(OCC(=O)N/N=C/c2cc([N+](=O)[O-])ccc2N2CCCCC2)cc1	-7.4	-34	6%	-2	9
COc1cccc(/C=C(/C#N)c2ccc(F)cc2)c1OCc1cccc(C(=O)O)c1	0.1	-30	1%	10	5
CCOc1ccc(N(CC(=O)NC2CCCCCC2)S(=O)(=O)c2ccccc2)cc1	-0.8	x	x	x	2
CCc1nc2ccccc2c(C(=O)OCC(=O)Nc2ccc(S(=O)(=O)N3CCOCC3)cc2)c1C	-3.0	-23	x	-4	2
COC(=O)[C@@]1(Cc2ccc(OC)cc2)[C@H]2c3cc(C(=O)N(C)C)[nH]c3C[C@H]2CN1C(=O)c1ccccc1	2.8	5	-1%	5	-11
Cc1ccc(NC(=O)CSc2ncc(S(=O)(=O)c3ccccc3)c(=O)[nH]2)cc1C	2.7	-2	-10%	6	-10
CC1CCC(C(=O)NC(C(=O)N2CCc3ccccc3C2)C(C)C)CC1 (centres undefined)	1.0	-8	-3%	-7	u
Cc1nnc(SCC(=O)NNC(=O)c2ccccc2)n1-c1ccccc1	-0.3	1	32%	9	4
O=C1CC(=O)CC(c2ccco2)C1	x	-15	-2%	-6	2
CCSc1ccc([C@@H]2[C@@H]3C(=O)N(C)C(=O)[C@@H]3[C@]3(C(=O)OC)CCCCN23)cc1	1.0	x	x	x	-12
Cc1ccc(NC(=O)C2CC(=O)N(C(C)C)C2)cc1C (centres undefined)	-3.6	x	x	x	-7
CC(=O)OCc1c(F)c(F)c(-n2nc(C)cc2C)c(F)c1F	2.8	-44	2%	6	6
Cc1c(Cc2c(Cl)cccc2Cl)c(=O)ccn1C(C)c1ccccc1 (centres undefined)	x	-21	-6%	4	x
CC1CCCC(C)N1C(=O)COC(=O)c1ccc(F)c(S(=O)(=O)N2CCOCC2)c1 (centres undefined)	-1.2	x	x	x	-12
O=C(CSc1nnc(-c2ccc(Cl)cc2)n1-c1ccccc1)N/N=C/c1ccccc1C(=O)O	11	x	-4%	-9	-3
CC(=O)c1ccc(OCC(=O)NCC(c2ccco2)N2CCCCC2)cc1 (centres undefined)	5.2	x	-5%	9	5
CCOC(=O)Oc1ccc(C(=O)OCCCN(C)C)cc1OC	-1.3	-8	-12%	14	4
O=C(Nc1cc(Cl)ccc1F)c1ccc(-n2cncn2)c([N+](=O)[O-])c1	-2.7	x	x	x	-1
COc1ccc(C(=O)NCCCOc2cccnc2)cc1OC1CCN(C(C)=O)CC1	0.8	x	x	x	-5
COc1cccc(/C=N\NC(C)=O)c1OC/C=C/c1ccccc1	0.8	x	x	x	-6
CSCC(=O)N1CCCC(CO)(CCCc2ccccc2)C1 (centres undefined)	1.0	x	x	x	-6
COCC(C)NC(=O)c1cc2c(ccc3ccccc32)oc1=O (centres undefined)	i	x	x	x	4
O=C(Nc1ccccc1)N1CCC(C(=O)N2CCN(S(=O)(=O)c3cccc(F)c3)CC2)CC1	x	-38	4%	x	u
CCc1ccc(C(=O)NNC(=O)CCN2CCN(Cc3ccccc3)CC2)cc1	-0.2	x	-3%	3	-3
CCOc1ccccc1NS(=O)(=O)c1cccc2nsnc12	2.0	-24	-3%	0	15
Cc1cccc(C)c1NC(=O)CN(C)C(=O)CSCc1c(C)noc1C	-1.0	x	x	x	-8
O=C1CCCC2=C1C(c1ccncc1)Nc1ccccc1N2 (centres undefined)	1.9	-16	3%	5	-1
Cc1ccc(C)c(NC(NC(=O)c2cccnc2)C(Cl)(Cl)Cl)c1 (centres undefined)	x	-36	-6%	5	7
Cc1ccc(Cn2nnc3c(=O)n(Cc4cccc(C)c4)cnc32)cc1	5.6	-23	10%	6	4
O=C(Nc1ccnc(-c2cccnc2)n1)c1ccccc1Cl	0.8	-12	-12%	7	9
O=C(NCc1ccccc1)Nc1cccn(Cc2ccccc2F)c1=O	-1.2	-32	6%	-3	-3
O=S1(=O)NC(=NCC(c2ccco2)N2CCCCC2)c2ccccc21 (centres undefined)	0.0	x	-1%	x	-11
Cc1cc(C)n2nc(SCc3nnc(-c4ccccc4Br)o3)nc2n1	0.1	x	-2%	0	-1
Cc1nc(N2CCN(C)CC2)c2c(C)c(C(=O)Nc3ccc(C)c(F)c3)sc2n1	0.2	-5	7%	-29	-1
CCOC(=O)N1CCN(c2c(N3CCN(c4ccc(F)cc4)CC3)c(=O)c2=O)CC1	-4.3	x	3%	x	-11
CC(NC(=O)COc1ccccc1)C(=O)OCC(=O)c1cc2ccccc2o1 (centres undefined)	0.0	-43	-16%	-6	0
O=c1c(Cl)cc(Cl)nn1-c1ccccc1	15	-28	24%	-35	89
O=S(=O)(CC(CN1CCCCC1)N1CCCCC1)c1ccccc1 (centres undefined)	0.3	x	-8%	-30	26
O=C1NN(c2cccc(Br)c2)C(=O)/C1=C\c1ccc(N2CCOCC2)cc1	-1.5	x	x	x	4
COc1ccc(OC)c2[nH]c(=O)c(CCNC(=O)C(=O)c3c[nH]c4ccccc34)cc12	2.3	x	7%	-3	1
Cc1ccc2c(c1)C1CN(C)CCC1N2C(=O)Nc1cccc(C(F)(F)F)c1 (centres undefined)	5.0	-20	0%	-26	-10

Entries from the list above with a COOH group, in the order listed:
SMILES	RecA intein inh	YopH PTP inh	Mtb growth	Arbovirus inh	Mtb bLac sens	others
COc1cccc(NC(=O)Nc2cc(C(=O)O)ccc2C)c1	0.4	x	-5%	7	-4
COc1cccc(/C=C(/C#N)c2ccc(F)cc2)c1OCc1cccc(C(=O)O)c1	0.1	-30	1%	10	5
O=C(CSc1nnc(-c2ccc(Cl)cc2)n1-c1ccccc1)N/N=C/c1ccccc1C(=O)O	11	x	-4%	-9	-3

Back to the main list, repeating the 5 entries before the break.
SMILES	RecA intein inh	YopH PTP inh	Mtb growth	Arbovirus inh	Mtb bLac sens	others
O=c1c(Cl)cc(Cl)nn1-c1ccccc1	15	-28	24%	-35	89
O=S(=O)(CC(CN1CCCCC1)N1CCCCC1)c1ccccc1 (centres undefined)	0.3	x	-8%	-30	26
O=C1NN(c2cccc(Br)c2)C(=O)/C1=C\c1ccc(N2CCOCC2)cc1	-1.5	x	x	x	4
COc1ccc(OC)c2[nH]c(=O)c(CCNC(=O)C(=O)c3c[nH]c4ccccc34)cc12	2.3	x	7%	-3	1
Cc1ccc2c(c1)C1CN(C)CCC1N2C(=O)Nc1cccc(C(F)(F)F)c1 (centres undefined)	5.0	-20	0%	-26	-10
CCOC(=O)N1c2ccccc2C=CC1OCC (centres undefined)	-4.1	-42	-8%	6	0
Nc1nnc(SCC(=O)N2CCCCC2)s1	-1.2	x	x	x	3
CCn1nnnc1SCC(=O)Nc1nc2ccccc2s1	-3.4	x	-7%	12	-2
O=C(Nc1ccc(Cl)cc1)c1cc2c(cc1O)[nH]c1ccccc12	17	x	1.7µM*	x	100
COc1ccc(C(CC(=O)Nc2cc(C)ccn2)N2Cc3ccccc3C2=O)cc1 (centres undefined)	0.3	x	x	x	9
O=C(c1cccnc1Cl)N1CCOCC1	0.3	x	-1%	3	-2
COc1cccc(CNC(=O)Cn2ccc3cc(S(=O)(=O)N4CCCC4)ccc32)c1	-2.3	x	x	x	-10
COc1ccc(S(=O)(=O)N2CCN(C)CC2)cc1Br	0.9	-47	-6%	6	-2	Arbovirus inh repeat=6
CCCN(Cc1cc2ccc(C)cc2[nH]c1=O)C(=O)c1cccnc1	-0.4	27	6%	3	-10
O=C(N/N=C/c1sc(=O)n(-c2ccccc2)c1Cl)c1ccncc1	20	-14	u	13	98
CN(CC(=O)Nc1ccccc1C(F)(F)F)C(=O)c1ccc(N2C(=O)CCC2=O)cc1	-1.0	x	x	x	-7
COc1ccc(-c2nc(C#N)c(N3CCCCCC3)o2)cc1	7.1	-4	6%	3	1
CCCn1c(NC(=O)C2CCN(C(=O)c3ccc(F)cc3)CC2)nc2ccccc21	0.8	x	x	x	84
Cc1cc(C)nc(N2CCC(C(=O)N3CCN(c4cc(Cl)ccc4C)CC3)CC2)n1	18	-32	11%	-25	98
c1ccc(Oc2cnc3ccccc3n2)cc1	0.8	-26	2%	1	2
O=C(Nc1nc2c(ccc3ccccc32)s1)c1cc([N+](=O)[O-])ccc1N1CCOCC1	-1.5	x	2%	-8	2
Cc1ccc(N2C(=O)CC3(CCCC3)CC2=O)cc1	0.3	x	4%	x	-3
C[n+]1cc(C(=O)N2CCCCC2)ccc1/C=C/c1c[nH]c2ccccc12	1.5	x	0%	-3	-4
CN(C(=O)COC(=O)CSc1ccc(C(N)=O)cc1[N+](=O)[O-])C1CCCCC1	-2.9	x	x	x	-2
CCOC(=O)C1=NN(C(=O)COc2ccccc2)C(O)(c2ccc(Br)cc2)C1 (centres undefined)	6.3	x	-5%	-3	-2
O=C(CN1C(=O)NC2(CCCCC2)C1=O)NCc1ccc2c(c1)OCO2	2.0	x	-8%	0	-2
O=C(CSc1n[nH]c(=O)[nH]c1=O)NC1CC1	-1.0	x	4%	3	1
COc1cc(C(=O)N2CCN(C/C=C/c3ccccc3)CC2)cc(OC)c1C	7.1	-1	9%	-13	2
CCOc1ccc(N2C(=O)CC(n3ccc(C)n3)C2=O)cc1 (centres undefined)	-1.7	-30	-10%	4	1
COc1cc(C(=O)NCc2cccc3ccccc23)ccc1OCc1ccccc1	1.2	-25	-6%	1	44
Cc1cc(C)nc(NS(=O)(=O)c2ccc(NS(=O)(=O)c3ccsc3)cc2)n1	0.8	x	-6%	x	-2
Cc1cccc(OCc2nnc(N)s2)c1	2.2	8	-6%	4	-6
O=C(Nc1ccccc1)C1=C[C@H](c2ccc(Br)cc2)C[C@H](OCc2ccc(CO)cc2)O1	13	x	4%	-9	70
